# Screening results from PubChem.
# PMP22 txn prim = Cell-based coincidence reporter assay to measure PMP22 gene transcription in S16 Pmp22-F2sN cells - Primary screen. Potency, µM (series often up to 57.5 µM), inactives show at the top dose activity change, negative = inhibition, actives largely listed as inhibitors. S16 Pmp22-F2sN Schwann cells (luciferase reporters placed in the Pmp22 gene), FLuc/NLuc coincidence luminescence, 24 h. hit rate 2% among 43,000; active = clear falling dose curves in both reporters; inconclusive = both reporters move, but less clearly or upward; inactive = either reporter flat; the % is the NLuc reporter signal; further: on the % scale 0 is the no-effect control and ±100 the full control effect; some results filed as inactive show a strong effect at the top dose
#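 Transcriptional readout in edited S16(c9) cells: two luciferases reported from the Pmp22 locus, measured in turn after 24 h compound incubation.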
# HTT promoter inh = Primary qHTS for Identification of Small Molecule Inhibitors of Huntingtin Promoter Activity. HEK293 HTT promoter firefly luciferase reporter (activity 0% = vehicle and -100% = no light), 24 h. Potency, µM (highest dose often 57.5 µM), inactives show at the top dose activity change, negative = inhibition, usual class: inhibitors. hit rate 0.93% among 48,000. AID 1508623, 2021; active means well fitted inhibition curve with a large enough effect; inconclusive means small, poorly fitted or top-dose-only effect; inactive means no such curve, though single readings can be large or run the other way; further: nearly all actives have a fitted effect of over 50% in size
#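 Firefly luciferase readout (Dual-Glo, 10 min RT) after 24 h, 37 °C compound exposure (final up to 57.5 uM) of HEK293 reporter cells cultured 24 h beforehand; PTC124 at 50 uM final as control inhibitor; activity scaled vehicle 0%, zero RLU -100%.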
# * marks the source's active call; other numbers are inactive results; ? = inconclusive; nt = no result given; [ ] = another dose, or the depositor's remark. Potency means the concentration at half of the fitted maximal effect.
SMILES,PMP22 txn prim,HTT promoter inh
COc1ccc(CCNC(=O)Cc2c(C)c3c(cc(C)c4c(C)c(C)oc43)oc2=O)cc1OC,-16%,4%
COc1cccc(NC(=O)Cn2nnc(-c3nc(-c4ccccc4)no3)c2N)c1,-10%,?
Cc1ccc2nc(NC(=O)CSc3nc4c(c(=O)n3-c3ccccc3)SCC4)sc2c1,nt,?
C1=CC2C3C=CC(C3)C2C1 (centres undefined),nt,11%[116 µM]
O=C(Nc1ccc2nn(-c3ccccc3)nc2c1)c1ccc(-c2cccc(Cl)c2)o1,-130%,39%[activator]
COc1cccc(Nc2sc(C(=O)c3ccc(F)cc3)c(N)c2C(=O)NCc2ccc(Cl)cc2)c1,-42%,?
CC1CCN(C(c2ccc(F)cc2)c2sc3nc(-c4ccco4)nn3c2O)CC1 (centres undefined),22%,0%
O=C(Nc1cccc(-c2nc3ccccc3o2)c1)c1cccc(Br)c1,-5%,-19%
CCc1cccc(C)c1NC(=O)CSc1nc2ccncc2[nH]1,?,-36%
CCc1cccc(NC(=O)CNS(=O)(=O)c2ccc3nc(C)sc3c2)c1,-15%,-2%
CCOC(=O)Cn1c(=O)n(-c2ccccc2OC)c2nc(-c3ccccc3F)nc(C(N)=O)c21,?,-15%
COc1ccc(-c2cc(C(F)(F)F)n3nc(C(=O)Nc4sc5c(c4C(=O)OC(C)C)CCCC5)cc3n2)cc1OC,7%,-17%[11.5 µM]
COc1cccc(NC(=O)Cn2c(=O)n(CCCC(=O)NCc3ccc4c(c3)OCO4)c(=O)c3ccccc32)c1,-19%,-12%
CC(C)(Oc1ccc(Cl)cc1)C(=O)O,nt,-1%
CCOC(=O)c1c(NC(=O)/C=C/c2ccc(OCC)cc2)sc2c1CCC2,-3%,-5%
Cc1ccc(CSc2nnc3[nH]c(=O)cc(-c4ccccc4)n23)cc1,-17%,-6%
O=C(Cn1c(-c2cccs2)cc2ccccc21)N1CCN(c2ccccc2F)CC1,?,?
COc1ccc(Cn2c(=O)n(-c3ccc(OC)cc3)c(=O)c3c2c2cc(OC)ccc2n3C)cc1,-36%,-13%
O=C(Cn1c(=O)nc(-c2ccccc2)c2ccccc21)N1CCN(c2ccc(F)cc2)CC1,-5%,-8%
CCCS(=O)(=O)c1c(S(=O)(=O)CCC)c2cc(C(C)(C)C)ccn2c1C(=O)c1ccccc1,-8%,25µM*
CCN1C(=O)c2ccccc2S(=O)(=O)c2ccc(C(=O)NCc3ccccc3OC)cc21,-11%,-14%
Cc1nc2ccc(S(=O)(=O)NC(C(=O)NCc3ccc(Cl)cc3)C(C)C)cc2s1 (centres undefined),0%,-12%
CC(C(=O)Nc1ccc(OC(F)(F)F)cc1)N1Cc2ccccc2C1=O (centres undefined),5%,-30%
Cc1ccc(C(=O)N2CCN(c3ccc(F)cc3)CC2)cc1NC(=O)c1nsc2ccccc12,?,16%
COc1ccc2sc(N(Cc3cccnc3)C(=O)CCc3ccccc3)nc2c1,?,?

# Continued, overlapping the part above by 3 compounds.
SMILES,PMP22 txn prim,HTT promoter inh
CC(C(=O)Nc1ccc(OC(F)(F)F)cc1)N1Cc2ccccc2C1=O (centres undefined),5%,-30%
Cc1ccc(C(=O)N2CCN(c3ccc(F)cc3)CC2)cc1NC(=O)c1nsc2ccccc12,?,16%
COc1ccc2sc(N(Cc3cccnc3)C(=O)CCc3ccccc3)nc2c1,?,?
COc1ccc(NC(=O)CCCn2c(=O)c3cccn3c3cccnc32)cc1Cl,15µM*,-5%
COc1cc(OC)cc(-n2nnc(-c3nc(-c4ccccc4Cl)no3)c2N)c1,0%,-5%
COc1cccc(-c2nc(SCc3ccc(C)cc3)n3[nH]c(=O)cc3n2)c1,-16%,0%
CCOC(=O)CSc1nc2cc3c(cc2c(=O)n1CCCC(=O)NCc1ccc2c(c1)OCO2)OCO3,?,-18%
CCOc1ccccc1NC(=O)CCc1c(C)nc2c3cccnc3nn2c1C,-14%,-7%
CCN(C(=O)c1cn(C)c(=O)c2ccccc12)c1cccc(C)c1,-29%,-12%
CCCCOc1ccc(C(=O)N(Cc2ccco2)Cc2ccco2)cc1,?,-10%
COc1cccc(NC(=O)CCc2nc(-c3ccc(C(C)(C)C)cc3)no2)c1,-8%,-85%
Cc1cccc(NC(=O)c2c(N)sc3c2CCC(C)C3)c1 (centres undefined),9%,41%[activator]
CCOc1ccc(C2CC(=O)NC(NC(=O)c3cccc(Cl)c3)=N2)cc1 (centres undefined),-26%,-2%
CCNC(=O)[C@H]1O[C@@H](n2cnc3c(N)nc(NCCc4ccc(CCC(=O)O)cc4)nc32)[C@H](O)[C@H]1O,nt,-5%
COc1ccc(-c2cc(OC(=O)c3ccc(F)cc3)c3c(C)oc(C)c3c(=O)c2)cc1OC,-22%,-16%
COc1ccc(C2Sc3ccccc3N(CCN(C)C)C(=O)C2OC(C)=O)cc1 (centres undefined),nt,-6%
CCCOc1cccc(C(=O)N(Cc2ccc(C)o2)C2CCS(=O)(=O)C2)c1 (centres undefined),-13%,-16%
Cc1cccc(CNC(=O)c2ccc(Cn3c(=O)c4cccn4c4cccnc43)cc2)c1,-11%,-1%
CCOCCCNC(=O)C(c1ccc(C)cc1)N(Cc1ccc2c(c1)OCO2)C(=O)c1ccc(NC(C)=O)cc1 (centres undefined),4%,7%
Cc1ccc(-c2nnc(Nc3ccc(OC(F)(F)Cl)cc3)c3ccccc23)cc1S(=O)(=O)NC(C)(C)CO,-62%,-27%
CSc1ncc(C(=O)N2CCN(c3cc(C)ccc3C)CC2)c(C)n1,-14%,-23%
COc1ccc(-c2cc3ccc(O)c(CN4CCCC4)c3oc2=O)cc1,?,32%[activator]
CCOC(=O)c1ccc(N2C(=O)c3n[nH]c(C)c3C2c2ccc(C(C)C)cc2)cc1 (centres undefined),?,4%
COc1cccc(CNS(=O)(=O)c2cc3c(cc2C)n(C)c(=O)c(=O)n3C)c1,-24%,5%
CCc1ccc(Sc2cc(C(=O)NCCCN3CCCC(C)C3)c3ccccc3n2)cc1 (centres undefined),?,-15%
Cc1cccc(-c2nc3nc(C)cc(NCc4ccccc4Cl)n3n2)c1,-34%,-37%
CCCc1oc2ccc(NS(=O)(=O)c3ccc(OC)cc3)cc2c1C(=O)OCC,13µM*,?
Cc1ccc(N2CC(C(=O)Nc3ccc(N(C)C)cc3)CC2=O)cc1Cl (centres undefined),-26%,4%
# (more compounds)
SMILES,PMP22 txn prim,HTT promoter inh
COc1ccc(-n2c(=O)c3c4c(sc3n3c(SC(C)C)nnc23)COC(C(C)C)C4)cc1 (centres undefined),4%,1%
CCc1nc2ccc(C(=O)NCc3ccccc3C)cc2nc1CC,-7%,-4%
COc1ccc(CNC(=O)c2ccc3c(c2)N(Cc2ccccc2)C(=O)c2ccccc2S3=O)cc1 (centres undefined),1%,-8%
CC(N=C(NC#N)Nc1ccncc1)C(C)(C)C (centres undefined),nt,9%
COC(=O)N1CCCc2cc(S(=O)(=O)NCc3ccccc3)ccc21,-22%,-19%
CCCCOC(=O)c1ccc(NC(=O)c2cc(-c3ccccc3)on2)cc1,-10%,-5%
C[C@@H](O)[C@H]1C(=O)N2C(C(=O)O)=C(S[C@@H]3CN[C@H](CNS(N)(=O)=O)C3)[C@H](C)[C@H]12,nt,10%
CC(=O)c1ccc(N2CCN(S(=O)(=O)c3c(C)nc4sc(C)cn4c3=O)CC2)cc1,-12%,-26%
CCc1ccc(-c2nc(CS(=O)CC(=O)NCCc3ccc(C)cc3)c(C)o2)cc1 (centres undefined),-12%,-27%
O=C(COCc1cc(-c2cccs2)on1)Nc1cc(C(F)(F)F)ccc1Cl,-26%,-7%
Cc1cc(C)cc(NC(=O)c2oc3ccc4c(c3c2C)C(=O)CC(C)(C)O4)c1,-22%,?
Nc1c(-c2nc(-c3cccs3)no2)nnn1-c1ccc(Cl)cc1,11%,19%
CCCOc1ccc(C(=O)Nc2ccc(NC(=O)c3ccccc3)c(C)c2)cc1,?,-6%
Cc1cccc(OCC(=O)NC(Cc2c[nH]c3ccccc23)C(=O)O)c1C (centres undefined),-16%,-5%
CCOC(=O)N1CCc2c(sc(NCc3cccc(F)c3)c2C(=O)Nc2ccccc2OCC)C1,?,-12%
COc1ccc(-n2c(/C=C/c3cccc4ccccc34)nc3ccccc3c2=O)cc1OC,-6%,?
O=C(NCC(c1ccc2c(c1)OCO2)N1CCN(c2ccc(F)cc2)CC1)c1cccc([N+](=O)[O-])c1 (centres undefined),-15%,?
Cc1cc(NC(=O)CSc2ncc(C(=O)Nc3ccccc3)c(=O)n2C)no1,-7%,-11%
CC(=O)c1cc(-c2ccccc2)n(CC(=O)NC2CCCCCC2)c1C,0%,-16%
CCOc1ccc2c(c1)c(=O)c(S(=O)(=O)c1ccc(F)cc1)cn2CC(=O)Nc1ccccc1C,?,-20%
CS(=O)(=O)c1ccc(C(=O)Nc2ccc(Cl)c(-c3ccccn3)c2)c(Cl)c1,nt,17%
CCOCCCNC(=O)c1ccc(Cn2c(=O)c3cccn3c3cccnc32)cc1,11µM*,-24%
CCOC(=O)c1c(S(=O)(=O)N2CCC(C(=O)N3CCN(c4ccccc4F)CC3)CC2)c(C)n(C)c1C,3%,-13%
CCOc1ccc(CCNC(=O)c2cc3c(s2)-c2c(C)cccc2OC3)cc1,-16%,-2%
Cc1ccccc1-c1nc(CN2CCC(C(=O)NCc3ccc(F)cc3)CC2)c(C)o1,?,?

# An excerpt from above in order of the HTT promoter inh value, rising.
SMILES | HTT promoter inh
CC(=O)c1cc(-c2ccccc2)n(CC(=O)NC2CCCCCC2)c1C | -16%
Cc1cccc(OCC(=O)NC(Cc2c[nH]c3ccccc23)C(=O)O)c1C (centres undefined) | -5%
COc1ccc(-n2c(=O)c3c4c(sc3n3c(SC(C)C)nnc23)COC(C(C)C)C4)cc1 (centres undefined) | 1%
CS(=O)(=O)c1ccc(C(=O)Nc2ccc(Cl)c(-c3ccccn3)c2)c(Cl)c1 | 17%

# Additional results follow:
SMILES,PMP22 txn prim,HTT promoter inh
O=C(O)c1ccccc1NC(=O)N1c2ccccc2Sc2ccccc21,-22%,-7%
CCc1ccc(CNC(=O)c2ccc(-n3c(C)cc4c3CCC(C)C4)cc2)cc1 (centres undefined),?,4%
CC(C)CNc1nc(NC(C)(C)C)nc(Oc2ccc(=O)n(-c3ccccc3)n2)n1,-21%,-28%
COc1ccc2c(c1)CCc1sc(NC(=O)c3ccc(Cl)cc3)nc1-2,?,?
CCc1ccccc1NC(=O)Cn1nnc(C(=O)NCc2cccc(OC)c2)c1N,?,?
Cc1cccc(CS(=O)(=O)Cc2ccc(C(=O)NCc3ccc(F)cc3)o2)c1,?,?
Cc1cc(C)cc(NC(=O)CN2C(=O)CCc3cc(S(=O)(=O)N4CCCCC4)ccc32)c1,-21%,?
CCc1ccc(NC(=O)C(=O)NCC(c2ccc3c(c2)OCO3)N2CCN(C)CC2)cc1 (centres undefined),?,-16%
Cc1cc2c(cc1NC(=O)c1ccc(C(C)(C)C)cc1)n(C)c(=O)c(=O)n2C,?,4%
O=c1c(S(=O)(=O)c2ccccc2)cn(Cc2ccccc2)c2cc(N3CCCC3)c(F)cc12,6%,-11%
CCn1cc(S(=O)(=O)c2cc(C)cc(C)c2)c(=O)c2cc(F)c(N3CCN(c4ccccc4)CC3)cc21,4%,-26%
CCOc1ccc(NC(=O)NCc2cccn2Cc2ccccc2)cc1,-7%,-8%
CCOC(=O)c1ccc(N2C(=O)c3n[nH]c(-c4cccs4)c3C2c2ccc(Cl)cc2Cl)cc1 (centres undefined),?,?
CNC(=O)c1ccc2c(c1)N(Cc1ccccc1Cl)C(=O)c1ccccc1S2,-7%,-5%
Cc1ccc(CSc2nc3ccc(NC(=O)COc4ccc(F)cc4)cc3s2)cc1,-8%,-3%
CCc1ccc(OCc2cc(=O)n3c4c(sc3n2)CCCC4)cc1,-39%,-4%
Cc1cccc(NC(=O)CN(c2ccc(C(C)C)cc2)S(=O)(=O)c2c(C)nn(C)c2C)c1C,-2%,?
COc1ccc(Cn2c(CCC(=O)NCc3ccc(Cl)cc3)nc3cccnc32)cc1,-14%,-11%
Cc1ccc(C)c(N2CCN(C(=O)c3cc4ccc5cccnc5c4[nH]3)CC2)c1,?,-6%
CC(=O)N1c2ccccc2CC1C(=O)N1CCN(c2ccc(F)cc2)CC1 (centres undefined),4%,-12%
CCOC(=O)C1CCC(CN(Cc2ccc(OC)cc2)S(=O)(=O)c2ccc(F)c(C(=O)Nc3cc(C)ccc3C)c2)CC1 (centres undefined),-4%,13%

# Compound profiles, as listed above. Values in the order: PMP22 txn prim	HTT promoter inh
# Results for CCOC(=O)c1ccc(N2C(=O)c3n[nH]c(-c4cccs4)c3C2c2ccc(Cl)cc2Cl)cc1 (centres undefined) → ?	?
# Results for O=c1c(S(=O)(=O)c2ccccc2)cn(Cc2ccccc2)c2cc(N3CCCC3)c(F)cc12 → 6%	-11%
# Results for Cc1cc2c(cc1NC(=O)c1ccc(C(C)(C)C)cc1)n(C)c(=O)c(=O)n2C → ?	4%
# Results for CCc1ccc(NC(=O)C(=O)NCC(c2ccc3c(c2)OCO3)N2CCN(C)CC2)cc1 (centres undefined) → ?	-16%
# Results for Cc1cccc(CS(=O)(=O)Cc2ccc(C(=O)NCc3ccc(F)cc3)o2)c1 → ?	?

# Rows are unselected (roughly 2.6% active in at least one column).
